# Compound activity from PubChem.
# VACV Venus inh: inhibitors of vaccinia virus (Venus reporter) | Vaccinia virus Venus reporter expression, fluorescence | Potency, µM (doses to about 36.5 µM), without a hit: at the top dose activity change, negative = inhibition, actives largely listed as inhibitors | 330,000 compounds, 0.46% hits; active means well fitted inhibition curve with a large enough effect; inconclusive means small, poorly fitted or top-dose-only effect; inactive means no such curve, though single readings can be large or run the other way; tested in A549 cells; note: nearly all actives have a fitted effect of over 30% in size; inactives centre near -10
# Vaccinia mCherry: vaccinia inhibition (mCherry reporter). Vaccinia virus mCherry reporter infection, fluorescence; about a quarter of the inactives have no number. Potency, µM (top dose mostly 36.5 µM), for inactives: at the highest dose activity change, negative = inhibition, most hits filed as inhibitors. 310,000 compounds, 0.63% hits. AID 720579; active = well fitted inhibition curve with a large enough effect; inconclusive = small, poorly fitted or top-dose-only effect; inactive = no such curve, though single readings can be large or run the other way; tested in A549 cells; note: nearly all actives have a fitted effect of over 35% in size; inactives centre near -10
# * hit, by the source's call; i = inactive; ? = inconclusive; · = no result given; & = joins results of further samples; [ ] = dose if it differs, or a comment. % is set by controls: 0 for no effect and ±100 for the full control effect; potency is the fitted concentration of half-maximal effect. Not a hit list; about 0.87% have a hit in one of these screens.
SMILES,VACV Venus inh,Vaccinia mCherry
CCN1C(=O)[C@H]2[C@@H](c3ccc(OC)cc3)N3C(=O)CN(CC4CC4)C(=O)[C@@]3(C)[C@H]2C1=O,1%,-19%
C/C(CCc1ccccc1)=N/NC(=O)C(=O)NC(C)c1ccccc1 (stereo not given),-1%,-10%
O=C(Nc1ccc2nsnc2c1)C1CC1,-13%,0%
O=C1CN(C(=O)COc2ncnc3ccccc23)c2ccccc2N1,-9%,·
O=C(NCc1ccc(F)cc1)C1CCCN(S(=O)(=O)c2cccnc2)C1 (stereo not given),-4%,-11%
CC1=C(C(=O)OCc2ccc(C)cc2)C(c2cccc(F)c2F)CC(=O)N1 (stereo not given),-8%,-4%
C[C@@H]1C[C@H](Nc2ccccc2)c2ccccc2N1C(=O)c1cccnc1,?,·
O=C(C1CCCCC1)N1CCOc2ccc(CN3CCN(Cc4ccccn4)CC3)cc2C1,6%,-9%
C=CCNC(=O)N[C@@H](Cc1ccccc1)C(=O)OC,-2%[7.34 µM],i[7.34 µM]
Cc1cn2c(=O)cc(COC(=O)c3cccc(NC(=O)COc4ccccc4C)c3)nc2s1,-11%,-13%
CC(=O)Nc1cc(O)cc(O)c1,-5%,-6%
c1ccc2cc(OCCN3CCCC3)ccc2c1,-6%,-7%
O=C1c2ccccc2C(c2nnnn2Cc2ccccc2)N1Cc1ccc2c(c1)OCO2 (stereo not given),-6%,-7%
Oc1ccc(/C=N/Nc2ncc(Br)cn2)c(O)c1,?,2.5µM*
CCOCCCN(C)C1CCN(C(=O)c2oc3ccccc3c2NC(=O)Cc2cccc([N+](=O)[O-])c2)CC1,-10%,-15%
Cc1cc(NS(=O)(=O)c2ccc3oc(=O)c4ncn(C)c4c3c2)ccc1Br,-2%,-1%
COc1ccc(NC(=O)c2ccc(-c3ccc(OC)cc3)s2)cc1,-4%,-3%
COc1cc(NC(=O)C/C(C)=N/NC(=O)c2cccs2)c(OC)cc1Cl,-14%,-21%
O=CN1CCN(C2CC(=O)N(c3ccc4c(c3)OCO4)C2=O)CC1 (stereo not given),-4%,i
CCOC(=O)C1=C(SCC)c2cc3c(n2C1=O)CCCC3,-8%,-4%
COC(=O)c1ccc(CNC(=O)C23CC4CC(CC(C4)C2)C3)cc1,1%,i
COc1ccc(NC(=O)CN(C)C(=O)c2cccc3ccccc23)cc1,-11%,i
COc1ccc(C(=O)NC(=S)N2CCOCC2)cc1OC,-15%,i
Cc1cc([N+](=O)[O-])cc(/C=N\NC(=O)C2COc3ccccc3O2)c1O (stereo not given),8%,i
Cc1cc(C)nc(CCNC(=O)c2cc(COc3c(C)cccc3C)on2)n1,-16%,i
COC(=O)c1sccc1S(=O)(=O)N(CC(=O)Nc1c(C)cccc1C)c1ccc(C)c(C)c1,-4%,-11%
Cc1ccc(NC(=O)CSc2nc3ccccc3nc2Cc2ccccc2F)cc1F,2%,-10%
CC(=O)Nc1ccc(S(=O)(=O)N(C)CC(=O)OC(C)C(=O)NC2CCCC2)cc1 (stereo not given),-1%,-4%
O=C(O)C1CSC(c2ccccc2Cl)N1C(=O)c1ccc(Cl)cc1 (stereo not given),-8%,-11%
CC(=O)N1CCC(c2c[nH]c3ccccc23)CC1,-4%,i
Cc1cc(C)cc(NC(=O)c2cc(C)nn2C)c1,3%,-14%
COc1ccc(Cl)cc1NS(=O)(=O)c1cccc(C(=O)NCC2CCCO2)c1 (stereo not given),0%,-8%
O=C1c2cccc3cccc(c23)C(=O)N1CCCN(C(=O)c1cccs1)c1cccc(F)c1,-8%,i
Cc1cccc(S(=O)Cc2ccc(C(=O)NC3CCCCCC3)o2)c1 (stereo not given),-4%,-4%
Oc1cc2c(cc1CN1CCN(c3ccc(F)cc3)CC1)OCO2,-27%,?
Cc1ccc(CNC(=O)C2CN(S(C)(=O)=O)c3cc(Cl)ccc3O2)cc1 (stereo not given),-18%,-9%
COc1cccc(C(=O)OCc2ccccc2C#N)c1O,-15%,-14%
CCOc1ccc2nnnn2n1,-7%,-4%
OC(COc1ccccc1)CN1CCN(c2cccc(Cl)c2)CC1 (stereo not given),-20%,-12%
COC(=O)c1c(NC(=O)c2cc(=O)c3c(C)cc(C)cc3o2)sc2c1CCCC2,0%,1%
COc1cc2cc(CN(CCc3ccccc3C)C(=S)NCCCN(C)C)c(=O)[nH]c2cc1OC,-19%,-10%
Cc1nonc1CC(=O)N1CCCC(C(=O)c2cccc(C(F)(F)F)c2)C1 (stereo not given),-16%,-9%
CCc1nc2ccc(C(=O)NCc3ccc4c(c3)OCO4)cn2c1N(C)Cc1ccc(OC)cc1,-5%,-22%
CC(=O)c1ccc(Nc2cc(C)nc3ccccc23)cc1,-17%,-24%
COc1ccccc1OCC(=O)N1CCCCCC1,-7%,i
Cc1ccc(NC(=O)CSc2nc3c(c(=O)[nH]2)CCC3)c(C)c1,-15%,-20%
CCCCn1nnnc1C(CCc1ccccc1)N1CCN(C/C=C/c2ccccc2)CC1 (stereo not given),-19%,-13%
COc1ccc(C(c2c(C)[nH]n(C(N)=S)c2=O)C(C#N)C#N)cc1 (stereo not given),-6%,-14%
CCc1nnc(NC(=O)c2ccc(Br)c(S(=O)(=O)N3CCOCC3)c2)s1,-4%,-13%
COc1cc(-c2nc(Cn3nnc(C(=O)Nc4cccc(Cl)c4)c3C)c(C)o2)cc(OC)c1OC,-18%,-18%
Cc1ccc(Cl)cc1N1CCN(CC(O)COCc2ccco2)CC1 (stereo not given),-17%,-13%
CC(N)c1csc(NC(=O)Nc2cccc(C(F)(F)F)c2)n1 (stereo not given),-24%,11%
Cc1cccc2c(C(=O)N3CCCCC3)cc(-c3ccccc3)nc12,-7%,-10%
CN(C(=O)c1cccc(C#N)c1)c1nnc(-c2ccccn2)s1,-14%,-24%
CCCCn1c(O)c(C=NC2CC3CCC2(C)C3(C)C)c(=O)[nH]c1=O (stereo not given),-25%,-28%
CSc1ccc(C2c3c(oc4ccc(F)cc4c3=O)C(=O)N2c2ccc(C)cn2)cc1 (stereo not given),-7%,-10%
Cc1c([N+](=O)[O-])c(C(=O)Sc2ccc(Br)cc2)nn1C,-5%,i
O=C(CCC(=O)Nc1ccccc1Cl)NNC(=O)Nc1cccc([N+](=O)[O-])c1,-10%,-14%
COc1cccc(C(C(=O)NC2CCCC2)N(Cc2ccccc2OC)C(=O)c2ccco2)c1 (stereo not given),-14%,-24%
CC1CCN(C(=O)Cn2c(=O)n(CC3CCC(C(=O)NC(C)C)CC3)c(=O)c3sccc32)CC1 (stereo not given),4%,1%

# Quoted at random: two compounds from above
SMILES,VACV Venus inh,Vaccinia mCherry
Cc1ccc(Cl)cc1N1CCN(CC(O)COCc2ccco2)CC1 (stereo not given),-17%,-13%
CCc1nc2ccc(C(=O)NCc3ccc4c(c3)OCO4)cn2c1N(C)Cc1ccc(OC)cc1,-5%,-22%

# (more compounds)
SMILES,VACV Venus inh,Vaccinia mCherry
O=c1c2c3c(sc2ncn1/N=C/c1ccco1)CCCC3,-11%,-11%
COc1ccc(NC(=S)NCC2CCCO2)c(OC)c1 (stereo not given),-7%,-8%
CCOC(=O)CN1N=C(/C=C/c2ccc(OC)cc2)CCC1=O,-12%,·
O=S(=O)(c1cc(Br)c(Br)s1)N1CCN(c2ccccc2)CC1,-7%,-8%
O=C(NCc1ccc(Br)cc1)OC1CC2CC1[C@H]1CCCCN1C2=O (stereo not given in full),-4%,-11%
CN(C(=O)c1ccc(NC(=O)C2CCCN(C(=O)OC(C)(C)C)C2)cc1)C1CCCCC1 (stereo not given),-28%,-19%
COc1ccccc1CNC(=O)COC(=O)CCC(=O)c1cccs1,7%,3%
CC(C)C[C@H]1CNC(=S)N1C[C@H]1CCCN1C[C@H](Cc1ccc(O)cc1)N1C[C@H](CC(C)C)N(CC2CCCCCC2)C1=S,-20%,-15%
O=C(O)COc1ccccc1C1C2C(=O)N(c3ccccc3)C(=O)C2ON1c1ccccc1 (stereo not given),-1%,-11%
NC1=NC2C(N=C(Br)N2[C@@H]2O[C@H]3COP(=O)(O)O[C@@H]3[C@@H]2O)C(=O)N1 (stereo not given in full),-8%,i
COc1ccccc1NC(=O)c1ccc2c(c1)N(CC(=O)NC(C)C)C(=O)C(C)(C)O2,4%,11%
Cc1ccc(NC(=O)C(=O)c2ccc(C)cc2)cc1,-8%,-15%
CCCn1c2ccccc2c2cnn(CC(=O)NCCc3cc(OC)ccc3OC)c(=O)c21,-10%,-14%
CN(C)CCNc1oc(-c2ccccc2F)nc1C#N,-1%,-1%
Cc1cc(/C=C2\SC(=S)N(C)C2=O)c(C)n1-c1cccc(O)c1,-8%,?
COc1ccc(S(=O)(=O)N(C)CC(=O)Nc2ccc(F)cc2)cc1,-16%,-2%
CC(=O)n1nc(-c2ccncc2)nc1SCC(=O)Nc1cccc(Cl)c1,-6%,-14%
CCCn1c(CCC(=O)O)nc2cc(S(=O)(=O)N3CCCC3)ccc21,7%,1%
COc1ccc(C(=O)N/N=C/c2c[nH]c3ccccc23)cc1,-14%,-2%
CC(=O)Nc1cccc(CCc2nc3ccccc3[nH]2)c1,1%,i

# 18 compounds from above, arranged by length of the SMILES, ascending:
SMILES,VACV Venus inh,Vaccinia mCherry
CCOc1ccc2nnnn2n1,-7%,-4%
COc1cccc(C(=O)OCc2ccccc2C#N)c1O,-15%,-14%
OC(COc1ccccc1)CN1CCN(c2cccc(Cl)c2)CC1 (stereo not given),-20%,-12%
CC(N)c1csc(NC(=O)Nc2cccc(C(F)(F)F)c2)n1 (stereo not given),-24%,11%
CN(C(=O)c1cccc(C#N)c1)c1nnc(-c2ccccn2)s1,-14%,-24%
O=S(=O)(c1cc(Br)c(Br)s1)N1CCN(c2ccccc2)CC1,-7%,-8%
Cc1c([N+](=O)[O-])c(C(=O)Sc2ccc(Br)cc2)nn1C,-5%,i
Cc1cc(C)nc(CCNC(=O)c2cc(COc3c(C)cccc3C)on2)n1,-16%,i
CCCCn1c(O)c(C=NC2CC3CCC2(C)C3(C)C)c(=O)[nH]c1=O (stereo not given),-25%,-28%
CCCCn1nnnc1C(CCc1ccccc1)N1CCN(C/C=C/c2ccccc2)CC1 (stereo not given),-19%,-13%
Cc1cc([N+](=O)[O-])cc(/C=N\NC(=O)C2COc3ccccc3O2)c1O (stereo not given),8%,i
COC(=O)c1c(NC(=O)c2cc(=O)c3c(C)cc(C)cc3o2)sc2c1CCCC2,0%,1%
O=C(CCC(=O)Nc1ccccc1Cl)NNC(=O)Nc1cccc([N+](=O)[O-])c1,-10%,-14%
Cc1cn2c(=O)cc(COC(=O)c3cccc(NC(=O)COc4ccccc4C)c3)nc2s1,-11%,-13%
O=C1c2cccc3cccc(c23)C(=O)N1CCCN(C(=O)c1cccs1)c1cccc(F)c1,-8%,i
CN(C(=O)c1ccc(NC(=O)C2CCCN(C(=O)OC(C)(C)C)C2)cc1)C1CCCCC1 (stereo not given),-28%,-19%
COc1cc(-c2nc(Cn3nnc(C(=O)Nc4cccc(Cl)c4)c3C)c(C)o2)cc(OC)c1OC,-18%,-18%
CC1CCN(C(=O)Cn2c(=O)n(CC3CCC(C(=O)NC(C)C)CC3)c(=O)c3sccc32)CC1 (stereo not given),4%,1%

# Remaining list, next part
SMILES,VACV Venus inh,Vaccinia mCherry
O=C(N/C(=C/c1ccccc1)C(=O)N1CCCCC1)c1ccccc1,-21%,i
COC(=O)c1ccc(-c2csc(NC(=O)C3=COCCO3)n2)cc1,-11%,-11%
CCCCN(C)C(=S)Nc1ccc2nc(N3CCN(CC)CC3)cc(C)c2c1,-23%,-35%
CC(NC(=O)c1ccccc1[N+](=O)[O-])C1CC2CCC1C2 (stereo not given),-7%,-10%
Cc1ccccc1CN1c2ccccc2-c2nc(SCC(=O)NCc3ccccc3)ncc2S1(=O)=O,-8%,-9%
CCN(C(=O)COC(=O)c1ccc(Br)o1)C1CCCCC1,-16%,i
COCCCN1C(=O)C(CC(=O)NCCN2CCOCC2)CC(C(=O)N2CCOCC2)=C1C (stereo not given),3%,5%
CCCC(=O)N1CCC1(C)C(=O)NS(=O)(=O)c1cccc(F)c1 (stereo not given),3%,5%
CCOC(=O)[C@]12CCC=C1N(Cc1ccc(Cl)cc1Cl)C(=O)[C@H](CC(=O)NCc1cccc(C(F)(F)F)c1)C2,-25%,?
O=C(CN(Cc1ccc(Cl)cc1)C(=O)c1csnn1)NCc1ccc(F)cc1,-3%,-9%
Cc1cc(C(=O)CSc2nncs2)c(C)n1-c1ccc2c(c1)OCO2,-22%,-7%
Cc1ccc(OCC(=O)Nc2nnc(SCc3cc(=O)n4cc(C)ccc4n3)s2)cc1,-8%,-15%
Cn1c(NCCN2CCCC2)nc2cc(-c3ccsc3)sc2c1=O,-7%,15%
COc1ccc(-c2nc3cc(C)ccn3c2NC2CCCCC2)cc1SC1CCCCC1,?,?
Cc1ccc(-c2c3c(=O)n(C)c(=O)n(C)c3cn2CCCN2CCOCC2)cc1,-14%,-12%[1.46 µM]
Cc1nnc(SCC(=O)NC(C)(C)C)n1NCc1ccc(N(C)C)cc1,-6%,i
COc1cc2ccc(=O)oc2cc1O,1%&0%,13%&-5%
N#C/C(=C/c1ccc(F)cc1)S(=O)(=O)c1ccccc1,-9%,-6%
CCC1SC(C)C/C(=N/NC(N)=O)C1C (stereo not given),-11%,-14%
Cc1ccc(S(=O)(=O)C[C@@H]2OC[C@H](C)N2S(=O)(=O)c2ccc(C)cc2)cc1,-22%,?
O=C(O)c1c2c(nc3ccccc13)/C(=C/c1ccc(OC(F)F)cc1)CCC2,4%,-10%
CN(Cc1ccccc1)C(=O)CN(Cc1ccccc1)S(C)(=O)=O,-6%,-6%
FC(F)(F)c1nc(SCc2ccccc2)n[nH]1,-13%[7.34 µM],-13%[7.34 µM]
